Screens as filed in PubChem.
PINK1 modulator: changes PINK1 expression; hit rate 0.2% among 410,000; Potency, µM (top dose mostly 76.6 µM), for the others: top-dose activation (PINK1 increase), hits mostly activators; PINK1 immunofluorescence, high-content cytometry, 24 h; active = well fitted activation curve with a large enough effect; inconclusive = small, poorly fitted or top-dose-only effect; inactive = flat fitted curve, though single readings scatter; cell line not stated here;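 also: potency is read from the fitted curve at half-maximal effect; % of control where 0% means no effect; nearly all actives have a fitted effect of over 65% in size; a mitochondrial uncoupler was the plate control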
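PINK1 protein, normally rapidly degraded, was detected by immunofluorescence after 24 hour compound treatment of a stable cell line. Titration data (5 concentrations) came from laser-scanning cytometry, with CCCP-treated wells as controls.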
Six1-Eya2 blk: blocks human Six1 binding to Eya2; activity change, % (no concentration beside the values); AlphaScreen GST-Six1/His-Eya2 binding, biochemical; active compounds read low; control for the full effect not named in the record; Q15475+O00167; hit rate 0.56% among 360,000; AID 651725; in the data active = activity change below about -65%; inconclusive = about -30% to -65%; inactive = above about -30%; also: % is scaled to controls: 0 for no effect and ±100 for the full control effect
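GST-Six1 + His-Eya2 (5X stock: 250/500 nM); Tris pH 8.0, 300 mM NaCl, 0.05% BSA, 0.02% Tween 20; GSH donor/Ni acceptor beads; 1 h 37 °C dark; AlphaScreen readout.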
D2 agonist: agonists of human D2 dopamine receptor (beta-arrestin). DiscoveRx PathHunter D2 beta-arrestin, luminescence, 90 min; 100% = 57 uM dopamine signal. P14416. activation, % (test concentration not listed). hit rate 0.084% among 360,000; in the data active = activation above about 40%; inconclusive = about 15% to 40%; inactive = below about 15%; also: compound concentration not given in the record; the text of the record calls up to 30% inactive
Target sequence (P14416 whole entry, looked up): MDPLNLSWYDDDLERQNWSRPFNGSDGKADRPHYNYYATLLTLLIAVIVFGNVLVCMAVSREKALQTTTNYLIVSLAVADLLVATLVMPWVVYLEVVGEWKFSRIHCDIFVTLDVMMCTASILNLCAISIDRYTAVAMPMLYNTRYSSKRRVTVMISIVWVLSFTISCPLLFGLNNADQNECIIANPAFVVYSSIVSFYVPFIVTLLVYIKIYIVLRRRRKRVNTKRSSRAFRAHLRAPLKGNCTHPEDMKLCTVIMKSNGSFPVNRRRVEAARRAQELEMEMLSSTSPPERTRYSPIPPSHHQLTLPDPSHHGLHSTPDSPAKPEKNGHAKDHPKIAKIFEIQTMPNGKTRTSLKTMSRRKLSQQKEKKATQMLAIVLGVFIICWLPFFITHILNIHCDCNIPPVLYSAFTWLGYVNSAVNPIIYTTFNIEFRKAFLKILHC
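DiscoveRx PathHunter D2 beta-arrestin cells (2,100/well) attached overnight, then compound-stimulated 90 min at 37 C in HBSS/10 mM HEPES/0.1% Tween-20 buffer; beta-galactosidase complementation read by luminescence after 1 h at ambient temperature. Dopamine 57 uM final (EC100) as control.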
CtBP-E1A inh: CtBP/E1A binding inhibition. AID 651724. AlphaScreen GST-E1A/His-CtBP binding, 1536-well; active compounds read low; control for the full effect not named in the record. activity change, % (test concentration not listed). hit rate 0.49% among 340,000; in the data active means activity change below about -65%; inconclusive means about -30% to -65%; inactive means above about -30%; also: % is scaled to controls: 0 for no effect and ±100 for the full control effect
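Protein mix (5X: 125 nM each GST-E1A, His-CtBP) was incubated with pinned compound 2 h at 37 deg C in dark, in 50 mM Tris pH 8.0 buffer with 300 mM NaCl. Glutathione donor and nickel acceptor beads followed; AlphaScreen signal read after 1 h.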
TRPML1 agonist: activates the human TRPML1 channel; Q9GZU1; TRPML1-expressing cells, Ca2+ dye fluorescence, FDSS; host cell line not named in the record; reference of the full effect not given here; activation, % (test concentration not listed); hit rate 0.12% among 410,000; in the data active = activation above about 50%; inconclusive = about 30% to 50%; inactive = below about 30%; also: 0% is about no effect; the text of the record puts the active cut at 80%
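TRPML1-DL cells, Tet-induced overnight (~16 h, 37 degrees C), loaded 45-90 min at room temperature with Ca8 no-wash calcium dye plus quencher. FDSS fluorescence: 10 s baseline, compound pin-transfer, 110 s agonist read, then EC80 54-4 (4uM final) and 110 s antagonist read.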
TRPML1 blocker: blocks the human TRPML1 channel. Q9GZU1. TRPML1-inducible cells, Ca2+ dye fluorescence, FDSS; active compounds read low; inhibition of EC80 agonist-evoked calcium signal. hit rate 0.02% among 390,000. activity change, negative = inhibition, % (no concentration beside the values); in the data active means activity change below about -50%; inconclusive means about -30% to -50%; inactive means above about -30%;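 also: stimulus is agonist 54-4 at its EC80 concentration; % is scaled to controls: 0 for no effect and ±100 for the full control effect; compound concentration not given in the record; the text of the record puts the active cut at -80%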
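Calcium fluorescence in TRPML1-DL cells induced overnight with Tet: a 110 s read after compound pin addition, then a 110 s antagonist read after challenge with 54-4 at 4 uM final (EC80).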
* hit, by the source's call; ? = inconclusive; / = not tested or not shown; [ ] = dose if it differs, or a comment.

A first look (13 entries):
The line under a structure holds: PINK1 modulator	Six1-Eya2 blk	D2 agonist	CtBP-E1A inh	TRPML1 agonist	TRPML1 blocker
COc1cc(/C=N/NC(=O)CCc2c(C)n[nH]c2C)cc(OC)c1OC
→ 0.4%	7.0	-1.0	0.3	-0.3	-15.4
O=C1C=C(c2ccc(OC(F)(F)F)cc2)C[C@@H](c2ccc(Cl)cc2)C1
→ 18.1%	19.0	1.3	-14.9	3.3	62.5
COc1ccc(S(=O)(=O)c2c(Nc3ccc(C)cc3C)sc(C(=O)c3ccc(F)cc3)c2N)cc1
→ 1.9%	/	/	/	2.5	-15.9
O=C(CNC(=O)c1ccccc1)OC(C(=O)c1ccccc1)c1ccccc1 (stereo unspecified)
→ 1.3%	3.4	-4.5	6.7	2.0	-15.7
Cc1cc(NC(=O)CSc2nc(-c3ccccc3)c(C#N)c(=O)[nH]2)no1
→ 14.9%[38.3 µM]	-3.0	-0.1	11.9	0.4	0.9
O=C(Nc1ccn(CCCNCc2ccccc2)c(=O)n1)OCc1ccccc1
→ 0.3%	1.0	-1.2	-4.7	0.1	7.3
CCC(=O)N1CCCc2cc(S(=O)(=O)N3CCC(C(=O)Nc4ccccc4CC)CC3)ccc21
→ 4.1%	/	/	/	-1.0	-1.9
O=S(=O)(Nc1ccncc1Cl)c1cccc(Cl)c1Cl
→ 0.7%	6.6	-4.2	-2.7	0.8	2.8
O=C(Nc1ccc(Cl)c(C(F)(F)F)c1)c1ccncc1
→ 1.1%	0.5	3.5	0.1	-0.7	11.1
CCc1cccc(C)c1NC(=O)C(NS(=O)(=O)c1ccc2c(c1)CCC(=O)N2)c1ccccc1 (stereo unspecified)
→ 1.7%	/	/	/	0.9	15.2
C(=N\c1c(-c2ccccc2)nc2n1CCS2)/c1ccccc1
→ 3.8%	-26.6	0.0	-18.2	0.3	-3.9
CCN(CC)c1ccc(/C=N/N2CCN(Cc3ccc(Cl)cc3)CC2)c(O)c1
→ 1.2%	-4.9	-1.9	-20.5	/	/
O=C(N/N=C/C1CC2CCC1C2)c1ccc2c(c1)OCO2 (stereo unspecified)
→ 0.3%	9.5	0.3	-0.3	-0.5	8.2

The whole of this part (from the top)
The line under a structure holds: PINK1 modulator	Six1-Eya2 blk	D2 agonist	CtBP-E1A inh	TRPML1 agonist	TRPML1 blocker
COc1cc(/C=N/NC(=O)CCc2c(C)n[nH]c2C)cc(OC)c1OC
→ 0.4%	7.0	-1.0	0.3	-0.3	-15.4
O=C1C=C(c2ccc(OC(F)(F)F)cc2)C[C@@H](c2ccc(Cl)cc2)C1
→ 18.1%	19.0	1.3	-14.9	3.3	62.5
COc1ccc(S(=O)(=O)c2c(Nc3ccc(C)cc3C)sc(C(=O)c3ccc(F)cc3)c2N)cc1
→ 1.9%	/	/	/	2.5	-15.9
O=C(CNC(=O)c1ccccc1)OC(C(=O)c1ccccc1)c1ccccc1 (stereo unspecified)
→ 1.3%	3.4	-4.5	6.7	2.0	-15.7
Cc1cc(NC(=O)CSc2nc(-c3ccccc3)c(C#N)c(=O)[nH]2)no1
→ 14.9%[38.3 µM]	-3.0	-0.1	11.9	0.4	0.9
O=C(Nc1ccn(CCCNCc2ccccc2)c(=O)n1)OCc1ccccc1
→ 0.3%	1.0	-1.2	-4.7	0.1	7.3
CCC(=O)N1CCCc2cc(S(=O)(=O)N3CCC(C(=O)Nc4ccccc4CC)CC3)ccc21
→ 4.1%	/	/	/	-1.0	-1.9
O=S(=O)(Nc1ccncc1Cl)c1cccc(Cl)c1Cl
→ 0.7%	6.6	-4.2	-2.7	0.8	2.8
O=C(Nc1ccc(Cl)c(C(F)(F)F)c1)c1ccncc1
→ 1.1%	0.5	3.5	0.1	-0.7	11.1
CCc1cccc(C)c1NC(=O)C(NS(=O)(=O)c1ccc2c(c1)CCC(=O)N2)c1ccccc1 (stereo unspecified)
→ 1.7%	/	/	/	0.9	15.2

Part of the list above in order of length of the SMILES, descending.
The line under a structure holds: PINK1 modulator	Six1-Eya2 blk	D2 agonist	CtBP-E1A inh	TRPML1 agonist	TRPML1 blocker
CCc1cccc(C)c1NC(=O)C(NS(=O)(=O)c1ccc2c(c1)CCC(=O)N2)c1ccccc1 (stereo unspecified)
→ 1.7%	/	/	/	0.9	15.2
COc1cc(/C=N/NC(=O)CCc2c(C)n[nH]c2C)cc(OC)c1OC
→ 0.4%	7.0	-1.0	0.3	-0.3	-15.4
O=S(=O)(Nc1ccncc1Cl)c1cccc(Cl)c1Cl
→ 0.7%	6.6	-4.2	-2.7	0.8	2.8

The results go on:
The line under a structure holds: PINK1 modulator	Six1-Eya2 blk	D2 agonist	CtBP-E1A inh	TRPML1 agonist	TRPML1 blocker
C(=N\c1c(-c2ccccc2)nc2n1CCS2)/c1ccccc1
→ 3.8%	-26.6	0.0	-18.2	0.3	-3.9
CCN(CC)c1ccc(/C=N/N2CCN(Cc3ccc(Cl)cc3)CC2)c(O)c1
→ 1.2%	-4.9	-1.9	-20.5	/	/
O=C(N/N=C/C1CC2CCC1C2)c1ccc2c(c1)OCO2 (stereo unspecified)
→ 0.3%	9.5	0.3	-0.3	-0.5	8.2
CC(NC(=O)CN1CCc2ccccc21)c1ccccc1 (stereo unspecified)
→ 1.8%	-2.4	1.4	-2.8	-0.8	-11.3
COc1cccc2[nH]c(C(=O)NN)c(N)c12
→ 2.2%	-20.0	4.9	-10.0	-0.1	-3.3
O=C(/C=C/c1ccccc1Cl)NCCc1ccccc1
→ -4.5%[38.3 µM]	6.8	0.9	7.5	1.7	-8.2
COc1ccc(C(C)C)cc1-c1cncc(NC(C)=O)n1
→ 0.4%	2.4	8.3	0.4	-1.0	/
O=C(CSc1nnc(CNc2ccc(F)cc2)o1)c1ccccc1
→ 2.4%	-4.8	-4.9	-5.5	1.2	0.8
CCn1cc(C(=O)O)c(=O)c2cnc(N3CCN(C(=S)NC(=O)c4ccc(OC)cc4)CC3)nc21
→ -0.1%	0.1	-2.1	5.0	-0.2	-18.2
CCOC(=O)C(=O)/C(C#N)=C/Nc1ccc(Cl)cc1
→ 4.8%	6.6	-8.9	-0.1	0.3	-1.6
COCC(C)n1c(C)cc(C(=O)COc2ccc(C)nc2[N+](=O)[O-])c1C (stereo unspecified)
→ -1.8%	0.7	0.4	4.5	1.3	0.1
CCC(C)(C)C1CCC2(CC1)NC(=O)N(CC(=O)NCCOc1ccccc1)C2=O (stereo unspecified)
→ 5.4%	-1.7	3.7	2.9	1.3	14.2
CCn1c(CSc2nnc(-c3ccoc3C)n2C)nc2cc(S(=O)(=O)N(C)C)ccc21
→ 0.8%	3.3	-4.2	1.5	-0.2	9.8
CCOC(CNC(=O)CN1C(=O)COc2ccc(S(=O)(=O)N3CCCC3)cc21)OCC
→ -0.2%	3.5	-0.2	3.5	-0.8	1.3
c1ccc([C@H]2CN3C(=N2)Sc2ccccc23)cc1
→ 4.6%	0.6	-5.5	4.9	-1.0	-7.2
O=C(C1COc2ccccc2O1)N1CCN(c2nc3ccc(F)cc3s2)CC1 (stereo unspecified)
→ 0.3%	/	/	/	0.2	-7.2
CCCc1cc(=O)[nH]c(SCc2cc(=O)oc3cc(C)c(C(C)C)cc23)n1
→ -0.6%	11.5	1.2	9.0	1.0	-23.0
COc1ccccc1NC(=O)C1CCC(CNc2c(N3CCCCC3)c(=O)c2=O)CC1 (stereo unspecified)
→ 0.7%	-3.8	-5.6	/	-0.3	3.0
C=C(C)COc1ccc(-c2nc(N)nc(C(F)(F)F)c2-c2ccc(OC)cc2)c(O)c1
→ ?	-20.9	7.6	/	2.8	34.6
CCOC(=O)c1c(NC(=O)c2ccc(Cl)cc2)csc1C
→ 26.1%	5.5	1.3	-1.7	-0.1	4.6
O=C(NCCc1csc2nc(-c3cccc(F)c3)nn12)c1ccc(Br)o1
→ 1.3%	/	/	/	0.7	0.5
CCc1noc(C)c1C(=O)Nc1sc(C(=O)N(C)C)c(C)c1C#N
→ -2.4%	-0.3	-6.1	11.3	0.3	21.0
Cc1ccc(S(=O)(=O)N(C)c2ccc(OCC(=O)N3CCCC(C(F)(F)F)C3)cc2)cc1 (stereo unspecified)
→ 0.5%	-1.0	1.4	1.3	-0.3	26.8
CCc1ccc2oc(-c3ccc(C)c(NC(=O)c4ccc(C#N)cc4F)c3)nc2c1
→ 0.1%	/	/	/	2.2	2.4
Cc1ccc(COc2ccc(/C=N/NC(=O)CN3CCCCC3)cc2)cc1
→ 4.2%	-14.2	-3.3	-7.9	2.5	-4.1
Cc1ccc(S(=O)Cc2ccc(C(=O)N3CCN(C(=O)c4ccco4)CC3)o2)cc1 (stereo unspecified)
→ 0.5%	2.5	-1.6	2.8	-0.6	-16.9
COc1ccc2c(c1)C1NC(=S)NC(C)(O2)C1C(=O)Nc1ccc(Cl)cc1 (stereo unspecified)
→ 3.4%	-8.5	2.8	1.4	-0.8	7.8
C/C=C/Cn1c(SCc2ccc(C)cc2)nc2c1c(=O)[nH]c(=O)n2C
→ 4.4%	-27.1	-10.9	14.8	3.2	-1.6
